From PubChem
Sfp PPTase inh: Sfp phosphopantetheinyl transferase inhibition; Biochemical Sfp PPTase activity, qHTS; Potency, µM, inactives show max response, negative = inhibition, usual class: inhibitors; 310,000 compounds, 3.5% hits; active = well fitted inhibition curve with a large enough effect; inconclusive = small, poorly fitted or top-dose-only effect, or another doubt; inactive = no such curve, though single readings can be large or run the other way;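 note: the enzyme is Sfp with the accession as filed and its product quenches rhodamine fluorescence; potency is the fitted concentration of half-maximal effect; 0% = enzyme reaction without inhibitor and -100% = no enzyme wells; top concentration of the series not given in the record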
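Step 1, compound plus 15 nM Sfp-PPTase, 15 min, room temperature. Step 2, add rhodamine-CoA (5 uM) and BHQ-2-YbbR (12.5 uM). Step 3, read 525/598 nm fluorescence at 0 and 30 min.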
Menin-MLL FL inh: inhibitors of human menin-MLL interaction, wild-type MLL peptide | Fluorescence polarization, fluorescein-MLL peptide displacement from menin | FP activity change, % at 61.4 µM | 290,000 tested, under 10 active | AID 1766; inconclusive = falling polarisation curve, or a change in total fluorescence; inactive = total fluorescence flat and polarisation flat or rising; no compound was filed as active; the % refers to the polarisation; negative = inhibition;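 note: % of control where 0% means no effect; inhibitors lower the polarisation; unlabelled MLL peptide was the positive control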
Numbers without * were called inactive; ? = inconclusive; & = joins results of further samples; [ ] = remark or other dose. Some of the compounds tested, so the mix of outcomes need not match the whole.

Results follow in this order: Menin-MLL FL inh	Sfp PPTase inh
- C=C(C)C(O)C(CC/C=C(\C)C(=O)OCC)OC (stereo unspecified)
 : 8.7[11.7 µM]	-1%
- CC(C)[C@H](NC(=O)[C@H](CCC(N)=O)NC(=O)CNC(=O)[C@@H]1CCCN1C(=O)[C@H](Cc1ccc(O)cc1)NC(=O)CN)C(=O)O
 : -1.5	-12%
- COc1ccc(CCN2CCC[C@H](CN3CCc4cc(OC)c(OC)cc4CC3=O)C2)cc1OC
 : 5.0	-13%
- C#CC(C)OC(=O)Nc1cccc(Cl)c1 (stereo unspecified)
 : ?	1%
- O=C(O)c1ccccc1OS(=O)(=O)O
 : -0.3	3%
- OCC1OC(O)C(O)C(O)C1O (stereo unspecified)
 : -0.4	18%
- CC(C)(O)CCC(O)[C@@](C)(O)C1CC[C@]2(O)C3=CC(=O)C4CC(O)C(O)C[C@]4(C)C3CC[C@]12C (stereo partly specified)
 : 2.8	14%
- CCCCCCCC1Cc2ccccc2C(C(C(=O)OC)C(=O)OC)N1C(=O)OC (stereo unspecified)
 : -0.6	0%&2%
- NC(C(=O)NC1C(=O)N2C(C(=O)O)=C(Cl)CSC12)c1ccccc1 (stereo unspecified)
 : ?	-84%
- CCOC(=O)CCC(=O)O[C@H]1C(O[C@@H]2C(C)[C@H](O[C@H]3C[C@@](C)(OC)C(O)C(C)O3)C(C)C(=O)OC(CC)[C@@](C)(O)C(O)[C@H](C)C(=O)C(C)C[C@]2(C)O)OC(C)CC1N(C)C (stereo partly specified)
 : 1.1	14%
- COC(=O)C/C=C\[C@H](C)[C@H](CO)NS(=O)(=O)c1ccc(C)cc1
 : 1.3[11.7 µM]	3%
- CNC(=O)[C@@]1(C)C=C[C@@H](Cc2ccccc2)N1C(C)=O
 : -4.5	15%
- CC[C@H](C)[C@H](N)C(=O)N[C@H]1CCC(=O)NCC(C(=O)N[C@@H](Cc2ccc(O)cc2)C(=O)N[C@@H](CCCNC(=N)N)C(=O)N[C@@H](CC(C)C)C(=O)N[C@@H](CCCNC(=N)N)C(=O)N[C@@H](Cc2ccc(O)cc2)C(N)=O)NC(=O)[C@@H]2CCCN2C(=O)[C@@H](NC(=O)[C@@H](N)[C@@H](C)CC)CCC(=O)NCC(C(=O)N[C@@H](Cc2ccc(O)cc2)C(=O)N[C@@H](CCCNC(=N)N)C(=O)N[C@@H](CC(C)C)C(=O)N[C@@H](CCCNC(=N)N)C(=O)N[C@@H](Cc2ccc(O)cc2)C(N)=O)NC(=O)[C@@H]2CCCN2C1=O (stereo partly specified)
 : -25	7%
- COc1cc(C(=O)O[C@@H]2CC3CC[C@]2(C)C3(C)C)ccc1O
 : 1.1	23%
- CC(C)=CCC/C(C)=C/CC/C(C)=C/CSCC(=O)O
 : -1.9	-8%&16%&-11%

As a working copy, 3 of the compounds above.
Results follow in this order: Menin-MLL FL inh	Sfp PPTase inh
- C=C(C)C(O)C(CC/C=C(\C)C(=O)OCC)OC (stereo unspecified)
 : 8.7[11.7 µM]	-1%
- CC(C)[C@H](NC(=O)[C@H](CCC(N)=O)NC(=O)CNC(=O)[C@@H]1CCCN1C(=O)[C@H](Cc1ccc(O)cc1)NC(=O)CN)C(=O)O
 : -1.5	-12%
- COc1ccc(CCN2CCC[C@H](CN3CCc4cc(OC)c(OC)cc4CC3=O)C2)cc1OC
 : 5.0	-13%

More results:
Results follow in this order: Menin-MLL FL inh	Sfp PPTase inh
- Cc1onc(-c2c(F)cccc2Cl)c1C(=O)NC1C(=O)N2C1SC(C)(C)C2C(=O)O (stereo unspecified)
 : -1.0	-21%
- COC(=O)[C@H](C)NC(=O)C/C=C\[C@@H](C)[C@@H](CO)OC
 : 4.6[11.7 µM]	-6%
- COC(=O)C1=C(C(=O)OC)[C@@H]2Nc3ccccc3[C@@]23C[C@@H](C(=O)OC)N(S(=O)(=O)c2ccc(C)cc2)C3=N1
 : -1.2[11.7 µM]	4%
- COc1ccc([C@H]2OCC3C2CO[C@@H]3c2ccc(OC)c(OC)c2)cc1OC (stereo partly specified)
 : -1.4	1%
- CC[C@@H]1OC(=O)[C@H](C)[C@H](O[C@@H]2C[C@](C)(OC)[C@H](O)[C@H](C)O2)[C@H](C)[C@H](O[C@@H]2O[C@@H](C)C[C@@H](N(C)C)[C@@H]2O)[C@](C)(O)C[C@H](C)C(=NOCOCCOC)[C@H](C)[C@H](O)[C@]1(C)O
 : -0.5[24.8 µM]	36%
- CCC(=O)[C@]12O[C@@]3(C4C(=O)OCCC41)N(CC)C(C)=C(C(=O)OC)C(c1ccccc1)N3C2=O (stereo partly specified)
 : -2.9[11.7 µM]	16%
- CC1(C)CO[C@@H](CC(=O)O)CN1
 : 0.9	21%
- CO[C@H]1COC(=O)[C@H](C)NC(=O)C/C=C\[C@@H](C)[C@@H](NS(=O)(=O)c2ccc(C)cc2)COC(=O)C/C=C\[C@@H]1C
 : -0.1[11.7 µM]	11%
- C=CCC1(O)CCOc2ccccc21 (stereo unspecified)
 : -4.8	-15%
- CC(C)C[C@H](N)C(=O)N[C@H](C(=O)N[C@@H](CCCN=C(N)N)C(=O)N[C@H](CS)C(=O)NCC(=O)N[C@@H](CCCCN)C(=O)N[C@@H](Cc1cnc[nH]1)C(=O)N[C@@H](CO)C(=O)N[C@@H](CCCN=C(N)N)C(=O)O)C(C)C
 : 2.2	6%
- Cc1ccc(S(=O)(=O)/C=C/C#N)cc1
 : 0.8	2.8µM*
- CC1=CC2C(=O)c3cccc(O)c3C(=O)C2C(O)=C1 (stereo unspecified)
 : -7.0	?
- CN1C(=O)OC(C)(C)C1=O
 : 0.1[24.8 µM]	19%
- CC(=O)OCC1OC(C#Cc2ccc(Br)cc2)C=CC1OC(C)=O (stereo unspecified)
 : 3.6[11.7 µM]	-9%
- CN(C)/N=N\c1nc[nH]c1C(N)=O
 : -6.1[24.8 µM]	15%

Molecules listed so far with nitrogen in an aromatic ring, in the order listed:
Results follow in this order: Menin-MLL FL inh	Sfp PPTase inh
- Cc1onc(-c2c(F)cccc2Cl)c1C(=O)NC1C(=O)N2C1SC(C)(C)C2C(=O)O (stereo unspecified)
 : -1.0	-21%
- CC(C)C[C@H](N)C(=O)N[C@H](C(=O)N[C@@H](CCCN=C(N)N)C(=O)N[C@H](CS)C(=O)NCC(=O)N[C@@H](CCCCN)C(=O)N[C@@H](Cc1cnc[nH]1)C(=O)N[C@@H](CO)C(=O)N[C@@H](CCCN=C(N)N)C(=O)O)C(C)C
 : 2.2	6%
- CN(C)/N=N\c1nc[nH]c1C(N)=O
 : -6.1[24.8 µM]	15%

Next results.
Results follow in this order: Menin-MLL FL inh	Sfp PPTase inh
- COc1cccc([C@@H]2Oc3ccc(Br)cc3C(=O)[C@H]2OC(=O)N[C@H](C)C2CCCCC2)c1
 : -1.3	-15%
- COC(=O)[C@@]1(Cc2ccccc2)[C@H]2c3cc(C(=O)N4CCCC4)n(Cc4nc5ccccc5[nH]4)c3C[C@H]2CN1C(=O)c1ccccc1
 : 13	1%
- CC1=CC(=O)OC1Cc1ccc2ccccc2n1 (stereo unspecified)
 : -2.7	-28%
- CC1(C)C(=O)C2C[C@]3(O)C4=CC(=O)OC(c5ccoc5)[C@]4(C)CCC3[C@](C)(C2=O)C1CC(=O)O (stereo partly specified)
 : -14	14%
- COc1cccc(-c2cc(=O)c3ccccc3o2)c1N
 : ?	-25%&-22%&-15%
- CSCC[C@H](NC(=O)[C@H](CC(C)C)NC(=O)CCNC(=O)[C@@H](NC(=O)[C@H](Cc1ccccc1)NC(=O)[C@H](CO)NC(=O)[C@@H](N)CC(=O)O)C(C)C)C(N)=O
 : 6.7	3%
- CC(C)(C)NC[C@@H](O)c1ccc(O)c(CO)n1
 : -1.1	-7%
- O=C1NC(=O)c2cc(Nc3ccc(F)cc3)c(Nc3ccc(F)cc3)cc21
 : ?	?
- Cc1ccccc1C[C@H](C(=O)O)N1C(=O)c2ccc(C(=O)O)cc2C1=O
 : 0.8	7%
- C=CC[C@@H]1C=C[C@H](O/N=C\[C@@H](C)[C@H](OCc2ccccc2)C(C)C)[C@H](CO)O1
 : -3.8[11.7 µM]	0%
- N#CCCCS(=O)(=O)c1ccccc1
 : 0.4	23%
- CCCC[C@@H](NC(=O)[C@@H](Cc1cn(C(=O)OC)c2ccccc12)NC(=O)[C@H](CC(C)(C)C)NC(=O)N1[C@H](C)CCC[C@@H]1C)C(=O)O
 : 0.1	18%
- CC1(OC(=O)c2ccc(Cl)nc2)C(=O)C=C2C=C(C3CC3)OC=C2C1=O (stereo unspecified)
 : ?	1%
- CC(=O)NC(=O)c1ccccc1O
 : 1.4	2%
- CCCCc1nc2c(c3c1C[C@H](C)OC3)CN(C(=O)c1cccnc1)CC2
 : -4.1[11.7 µM]	10%
- CCOC(=O)N/N=C1/C[C@@H](O)[C@@H](O)[C@@H]2[C@@H]3C(=O)N(CC)C(=O)[C@H]3CC[C@H]12
 : 1.5[11.7 µM]	-16%
- CC(C)Cn1nnnc1S(=O)(=O)Cc1cccc(C#N)c1
 : -2.2	10%
- COC(=O)c1ccc(C(NC(=O)OCc2ccccc2)/C(C)=C/[C@@H](C)C(=O)NC2CCCCC2)cc1 (stereo partly specified)
 : 2.0	7%
- CCC/C=C(\CCC)C(NS(=O)(=O)CC12CCC(CC1=O)C2(C)C)c1ccc(C(=O)OC)cc1 (stereo unspecified)
 : -1.4	?

Entries listed so far that contain a cyano group:
Results follow in this order: Menin-MLL FL inh	Sfp PPTase inh
- Cc1ccc(S(=O)(=O)/C=C/C#N)cc1
 : 0.8	2.8µM*
- N#CCCCS(=O)(=O)c1ccccc1
 : 0.4	23%
- CC(C)Cn1nnnc1S(=O)(=O)Cc1cccc(C#N)c1
 : -2.2	10%
